RGS16-Gao: modulates binding between human RGS16 and Galphao | bead-based flow cytometry RGS16-Galphao binding, fluorescence; actives lie on both sides | hit rate 0.38% among 220,000 | binding response (% of control), % at 10 µM | AID 1441 | O15492+P09471;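 active = below 25% or above 175%, edge rows of some plates excepted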;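 note: Galphao activated by GDP with aluminum fluoride before binding; 100% = wells without compound and 0% = beads without RGS; some results beyond the cut were filed as inactive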
Target sequence (O15492 whole entry, looked up): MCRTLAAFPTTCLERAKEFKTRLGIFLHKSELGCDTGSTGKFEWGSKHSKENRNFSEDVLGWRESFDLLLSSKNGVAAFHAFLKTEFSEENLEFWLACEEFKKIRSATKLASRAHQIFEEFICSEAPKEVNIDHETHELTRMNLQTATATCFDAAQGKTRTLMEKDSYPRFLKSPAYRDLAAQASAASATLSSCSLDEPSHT
Target sequence (P09471 whole entry, looked up): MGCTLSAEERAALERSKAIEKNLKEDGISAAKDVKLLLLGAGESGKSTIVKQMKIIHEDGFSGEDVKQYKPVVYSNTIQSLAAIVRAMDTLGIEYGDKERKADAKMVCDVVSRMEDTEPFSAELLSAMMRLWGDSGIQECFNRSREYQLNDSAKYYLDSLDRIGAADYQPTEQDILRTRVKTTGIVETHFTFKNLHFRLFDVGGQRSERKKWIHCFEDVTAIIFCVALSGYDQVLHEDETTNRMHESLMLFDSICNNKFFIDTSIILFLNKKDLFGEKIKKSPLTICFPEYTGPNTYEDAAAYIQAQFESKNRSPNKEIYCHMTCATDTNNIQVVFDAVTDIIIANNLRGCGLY
HSV augment: increases HSV replication in cells; maximum fold increase; hit rate 0.005% among 220,000; HSV replication augmentation in cells, fold increase;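 active = peak rise of 1.5-fold or more in the series; tested in PC3 cells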;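 note: first round at 10 µM; read as green reporter fluorescence; hits show the peak of a series up to 25 µM; 1 = signal of infected wells without compound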
PKD1 kinase inh: inhibitors of human PKD1 kinase. AID 797. inhibition, %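 (about 10 µM by stock and volumes)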. PKD1 kinase fluorescence polarization assay. hit rate 0.056% among 200,000;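 active = inhibition of 50% or more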;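 note: controls were vehicle for no effect and a reference inhibitor for full effect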
GALR2 ag: activates the human galanin receptor 2 | activation, %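 (tested at 5 µM)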 | hit rate 0.48% among 140,000 | AID 803 | GALR2-expressing cells, agonist activation read-out | O43603;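 active = above mean plus 3 SD of all compounds, about 5% in these data, not always enough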;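 note: 0% = vehicle buffer wells and 100% = reference agonist at full effect; tested in CHO reporter cells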
Target sequence (O43603 whole entry, looked up): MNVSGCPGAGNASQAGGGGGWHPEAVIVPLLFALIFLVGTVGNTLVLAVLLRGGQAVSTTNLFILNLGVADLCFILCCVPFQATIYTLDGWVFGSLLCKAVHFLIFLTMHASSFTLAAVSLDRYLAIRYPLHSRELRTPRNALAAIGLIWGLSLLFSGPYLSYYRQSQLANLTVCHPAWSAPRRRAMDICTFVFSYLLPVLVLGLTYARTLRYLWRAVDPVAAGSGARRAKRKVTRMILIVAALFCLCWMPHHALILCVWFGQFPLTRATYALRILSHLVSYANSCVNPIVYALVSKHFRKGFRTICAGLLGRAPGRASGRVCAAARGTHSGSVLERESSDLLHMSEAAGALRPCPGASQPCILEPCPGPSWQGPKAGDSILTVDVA
INS promoter inh: TRM-6 insulin promoter activity inhibition; TRM-6 cells (human fetal islet line), insulin promoter-eGFP reporter, imaging; reporter expression induced with tamoxifen; inhibition, % at 2 µM; hit rate 0.9% among 130,000; AID 1273;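 active = inhibition above the mean plus 3 SD, with well images judged a real hit on visual review, cut at about 60% in these data, passing the limit was not always enough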
INS promoter inh cell count: recorded beside INS promoter inh, whose call it bears; normalized cell count, %; measured here: cell count, toxicity; reference of the scale not given here;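 cells exposed to compound for 48 h; stained nuclei by imaging scaled within each plate; lower means fewer cells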
HSV augment primary fold: further read-out of HSV augment, marked with its call; fold increase; compound at 10 µM; measured here: primary screen fold increase 10 uM; tested in PC3 cells;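 GFP signal in the first replicate; 1 = infected wells without compound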
* hit, by the source's call; i = inactive; . = no result given.

Below each SMILES – RGS16-Gao	HSV augment	HSV augment primary fold	PKD1 kinase inh	GALR2 ag	INS promoter inh	INS promoter inh cell count
1: COc1ccc(Cl)cc1N(CC(=O)Nc1ccccc1C(=O)NCc1ccco1)S(C)(=O)=O
→ 93	i	0.67	-1	-1.6	-156	61
2: COc1cc2[nH]c(=S)n(Cc3ccc(C)o3)c(=O)c2cc1OC
→ 99	i	0.74	6	-0.8	3	115
3: COc1ccc(NC(=O)N2CCCC2C(=O)NCc2ccc(F)cc2)cc1 (stereo unspecified)
→ 112	i	0.9	2	-1.2	38	77
4: CC1CCC2(CC1)SCC(=O)N2c1ccc(F)cc1 (stereo unspecified)
→ 99	i	0.97	.	.	.	.
5: CCCCCc1ccc(-c2ccc(/C=C/C(=O)O)cc2)nc1
→ 143	i	1	-4	1.3	-45	85
6: Cc1c(Cl)cccc1NC(=S)Nn1cnnc1
→ 98	i	0.91	6	.	.	.
7: Cc1ccccc1OCCCCCn1ccnc1
→ 102	i	0.7	4	-0.5	.	.
8: Cc1sc2ncn(/N=C/c3ccco3)c(=O)c2c1C
→ 114	i	1	.	.	.	.
9: Cc1ccc(NC(=O)C2C3/C=C\CCCCC32)cc1 (stereo unspecified)
→ 102	i	0.87	1	2.7	.	.
10: O=C1CCC/C1=C/Nc1ccc2c(c1)OCO2
→ 83	i	0.9	-8	-0.7	.	.
11: O=C(Oc1ccc(=O)n(-c2ccccc2)n1)c1ccccc1
→ 100	i	1.1	-15	-1.3	16	123
12: COc1ccc(S(=O)(=O)N2CCCC(C(=O)Nc3ccc4c(c3)OCCO4)C2)cc1 (stereo unspecified)
→ 101	i	0.59	-1	-1.1	-67	134
13: CC1=CC(C)(C)N(C(=O)CSc2nnc(N)s2)c2ccccc21
→ 112	i	1	-1	-1.0	-11	87
14: CSCCCNC(=S)N(C)CC(=O)Nc1ccc(C)cc1
→ 101	i	0.95	0	.	.	.
15: Cc1nn(CCOc2ccccc2)c(=O)n1-c1ccc(Cl)cc1
→ 105	i	0.88	3	.	.	.
16: COC(=O)c1sccc1-c1ccc(C(=O)Nc2cccnc2)o1
→ 101	i	0.89	10	-1.1	-12	92
17: O=C1Nc2ccccc2C1(c1ccccc1)c1ccccc1
→ 109	i	0.74	5	-3.5	-8	117
18: Cc1coc2cc3oc(=O)c(CCC(=O)O)c(C)c3cc12
→ 95	i	0.94	.	.	.	.
19: O=C(Nc1nnc(CCS(=O)(=O)c2ccc(Br)cc2)s1)c1ccc([N+](=O)[O-])cc1
→ 95	i	1	-10	-2.0	.	.
20: O=C(COCCOCC(=O)N(c1ccccn1)C1CCCCC1)N(c1ccccn1)C1CCCCC1
→ 100	i	1.1	2	0.0	43	107

A draw from above in order of molar mass, high to low:
Below each SMILES – RGS16-Gao	HSV augment	HSV augment primary fold	PKD1 kinase inh	GALR2 ag	INS promoter inh	INS promoter inh cell count
19: O=C(Nc1nnc(CCS(=O)(=O)c2ccc(Br)cc2)s1)c1ccc([N+](=O)[O-])cc1
→ 95	i	1	-10	-2.0	.	.
20: O=C(COCCOCC(=O)N(c1ccccn1)C1CCCCC1)N(c1ccccn1)C1CCCCC1
→ 100	i	1.1	2	0.0	43	107
1: COc1ccc(Cl)cc1N(CC(=O)Nc1ccccc1C(=O)NCc1ccco1)S(C)(=O)=O
→ 93	i	0.67	-1	-1.6	-156	61
12: COc1ccc(S(=O)(=O)N2CCCC(C(=O)Nc3ccc4c(c3)OCCO4)C2)cc1 (stereo unspecified)
→ 101	i	0.59	-1	-1.1	-67	134
3: COc1ccc(NC(=O)N2CCCC2C(=O)NCc2ccc(F)cc2)cc1 (stereo unspecified)
→ 112	i	0.9	2	-1.2	38	77
13: CC1=CC(C)(C)N(C(=O)CSc2nnc(N)s2)c2ccccc21
→ 112	i	1	-1	-1.0	-11	87
2: COc1cc2[nH]c(=S)n(Cc3ccc(C)o3)c(=O)c2cc1OC
→ 99	i	0.74	6	-0.8	3	115
16: COC(=O)c1sccc1-c1ccc(C(=O)Nc2cccnc2)o1
→ 101	i	0.89	10	-1.1	-12	92
14: CSCCCNC(=S)N(C)CC(=O)Nc1ccc(C)cc1
→ 101	i	0.95	0	.	.	.
5: CCCCCc1ccc(-c2ccc(/C=C/C(=O)O)cc2)nc1
→ 143	i	1	-4	1.3	-45	85
11: O=C(Oc1ccc(=O)n(-c2ccccc2)n1)c1ccccc1
→ 100	i	1.1	-15	-1.3	16	123
18: Cc1coc2cc3oc(=O)c(CCC(=O)O)c(C)c3cc12
→ 95	i	0.94	.	.	.	.
17: O=C1Nc2ccccc2C1(c1ccccc1)c1ccccc1
→ 109	i	0.74	5	-3.5	-8	117
6: Cc1c(Cl)cccc1NC(=S)Nn1cnnc1
→ 98	i	0.91	6	.	.	.
9: Cc1ccc(NC(=O)C2C3/C=C\CCCCC32)cc1 (stereo unspecified)
→ 102	i	0.87	1	2.7	.	.
7: Cc1ccccc1OCCCCCn1ccnc1
→ 102	i	0.7	4	-0.5	.	.
10: O=C1CCC/C1=C/Nc1ccc2c(c1)OCO2
→ 83	i	0.9	-8	-0.7	.	.

Next section
Below each SMILES – RGS16-Gao	HSV augment	HSV augment primary fold	PKD1 kinase inh	GALR2 ag	INS promoter inh	INS promoter inh cell count
21: CCOc1ccccc1CN1CCN(Cc2ccon2)CC1CCO (stereo unspecified)
→ 104	i	1	.	.	.	.
22: Cc1cc(C)c(NC(=O)C2C3/C=C\CCCCC32)c(C)c1 (stereo unspecified)
→ 108	i	0.99	-3	-1.6	.	.
23: Cc1ccc(C(=O)C2CCOC(C)(C)C2)cc1 (stereo unspecified)
→ 102	i	1.1	0	.	-15	51
24: O=C1C(C=Nc2ccccc2O)=C(O)c2ccccc21
→ 94	i	0.91	0	-1.3	29	71
25: COc1ccc(C(CC(=O)N2CCCC2)c2c(OC)cc(OC)c3c(-c4ccccc4)cc(=O)oc23)cc1 (stereo unspecified)
→ 99	i	1	.	.	.	.
26: O=C(NC1CCCC1)C1CC(c2ccc(F)cc2)=NO1 (stereo unspecified)
→ 103	i	0.79	-5	1.4	.	.
27: CCN(CCO)C(=S)Nc1cc(S(=O)(=O)N(C)C)ccc1C
→ 100	i	0.9	6	.	.	.
28: Cc1ccc(SCC(=O)N2CCN(c3ccccn3)CC2)cc1
→ 79	i	0.82	.	.	.	.
29: O=C(NC12CC3CC(CC(C3)C1)C2)c1ccc(N2CCNCC2)c([N+](=O)[O-])c1
→ 97	i	0.68	.	.	.	.
30: Cc1nc(-c2ccccc2)nc2[nH]c(=O)n(-c3ccccc3)c(=O)c12
→ 99	i	0.88	6	-1.6	63	95
31: O=C(Cc1ccccc1)Nc1ccc(N2CCCCC2)cc1
→ 100	i	0.98	5	.	29	103
32: O=C(NCn1ccc(=O)[nH]c1=S)c1ccccc1
→ 100	i	0.85	5	-2.8	-8	109
33: O=C(COC(=O)Cn1nnc2ccccc21)Nc1ccccc1Br
→ 112	i	1.1	-10	-1.7	.	.
34: Cc1cc(NC(=O)CCCN2C(=O)/C(=C/c3cccs3)SC2=S)no1
→ 120	.	.	-8	-1.3	.	.
35: O=C(c1cc([N+](=O)[O-])ccc1Cl)N1c2ccccc2Sc2ccccc21
→ 68	i	1.1	-16	-0.3	-29	58
36: CCn1cc(C(=O)N2CCc3ccccc32)c(=O)c2cc(S(=O)(=O)N(C)C3CCCCC3)ccc21
→ 103	i	0.74	-10	-1.7	14	100
37: COc1cccc(C2NC(=O)NC(C)=C2C(=O)OCCSC)c1OC (stereo unspecified)
→ .	i	1.3	-12	-2.6	.	.
38: Cn1cccc1/C=C1\Cc2ccccc2C1=O
→ 98	i	1.1	2	.	7	80
39: CSCCC(NC(=O)c1ccco1)C(=O)OC(C)C(=O)NC(=O)NC1CCCCC1 (stereo unspecified)
→ 100	i	0.86	-2	-0.9	6	43
40: CC(C)CC1CC(=O)OC1(C)C(=O)CSc1nc2ccccc2s1 (stereo unspecified)
→ 98	i	0.91	-9	-1.3	-18	168
41: CC1CC(C)CN(CCCNC(=O)C2CCC(=O)N2C2CCCC2)C1 (stereo unspecified)
→ 102	i	1.1	-7	-0.9	-25	122
42: Cc1c(NC(=O)C(C)OC(=O)CNC(=O)c2ccc(C(C)(C)C)cc2)c(=O)n(-c2ccccc2)n1C (stereo unspecified)
→ 108	i	0.93	-3	-0.4	21	172
43: Cc1ccccc1C(=O)Nc1cccc(NC(=O)c2ncn[nH]2)c1
→ 99	i	0.97	4	.	.	.
44: C=CCc1c(C)nc(SCC(=C)C)[nH]c1=O
→ 99	i	0.8	-2	-1.2	-8	119
45: Cc1nn(-c2ccc(Cl)cc2)c(Cl)c1/C=C(\C#N)C(N)=O
→ 31	i	0.89	-4	-0.9	.	.
46: COC(=O)c1cc2sccc2n1Cc1nc(-c2ccc(Cl)cc2)oc1C
→ -31	i	0.86	-3	-1.5	.	.
47: NC(=O)[C@@H]1CCCNc2c(I)cc([N+](=O)[O-])cc2C(=O)N[C@@H](CCC(=O)O)C(=O)N[C@@H](CO)C(=O)N1
→ 102	i	0.87	-3	-1.2	-123	99
48: CCN(CC(=O)Nc1c(F)cccc1F)C(=O)CCc1c[nH]c2ccccc12
→ 95	i	1.1	-2	.	.	.
49: COCCNC(=O)CN1CCC(n2c(C)nc3cc(C(F)(F)F)ccc32)CC1
→ 103	i	0.98	2	-0.9	14	115
50: CCOC(=O)NN1C(=O)c2ccccc2NC1c1ccccn1 (stereo unspecified)
→ 103	i	1.1	-10	.	-15	130
51: CC(C)Cn1c(N)c(C(=O)CSc2cc(Cl)ccc2Cl)c(=O)n(C)c1=O
→ 85	i	0.61	8	-1.2	-17	103
52: O=C(N/N=C/c1ccsc1)C1CC1
→ 86	i	0.88	1	.	-167	167
53: COc1ccc(/C=N/N2C(=O)C3C4C=CC(CC4)C3C2=O)c(OC)c1 (stereo unspecified)
→ 111	i	0.84	-2	.	42	169
54: Cc1ccc(S(=O)(=O)N2CCOCC2)cc1NC(=O)COC(=O)CSc1ccc(Br)cc1C
→ 109	i	0.84	-2	-0.5	22	81
55: CCCCC(=O)Nc1ccc(C(=O)Nc2nnc(COC)s2)cc1
→ 97	i	0.75	-1	-0.1	3	77
56: N=c1sccn1CC(=O)Nc1ccc(SC(F)F)cc1
→ 98	i	0.88	-13	.	18	66
57: C=CCN(c1ccccc1C(=O)NCC(=O)O)S(=O)(=O)c1ccc(C)cc1
→ 98	i	1.1	.	.	.	.
58: O=C(CSc1ncnc2c1sc1ccccc12)Nc1ccc(Br)cc1
→ 103	i	0.93	-15	0.3	-26	105
59: CC(=O)Cc1nsc(NC(=O)c2ccc(-c3ccc(Cl)c(Cl)c3)o2)n1
→ 109	i	0.91	1	.	-18	101
60: O=C(CSc1ccc(-c2cccs2)nn1)N1CCCCC1
→ 101	i	1	-1	0.1	.	.
61: C/C=C/c1ccc(OCCCCOc2ccc(OC)cc2)c(OC)c1
→ 92	i	1	5	-0.8	-21	149
62: S=C(NCc1cccs1)Nc1cccc(Cl)c1Cl
→ 101	i	1	-12	-1.2	.	.
63: O=C(COC(=O)c1cc(Br)ccc1Cl)NC1CCCC1
→ 94	i	1	-2	.	.	.
64: CCC(C)[C@H](NC(=O)NCc1ccco1)C(=O)O (stereo partly specified)
→ 101	i	1	-7	-1.8	.	.
65: CCOc1ccccc1NC(=O)/C(C#N)=C/c1c(C)nn(-c2ccc(F)cc2)c1Cl
→ 111	i	0.88	-2	0.2	19	130
66: CCOC(=O)C1CCCN(C(=S)Nc2cccc(Cl)c2)C1 (stereo unspecified)
→ 103	i	0.92	-4	-1.0	.	.
67: CCN(c1ccccc1)S(=O)(=O)c1cc(C(=O)O)ccc1C
→ 102	i	1.1	-6	0.5	-24	211
68: Cc1ccc(C(=O)N(CC(=O)NC2CCCCC2)c2ccccc2F)s1
→ 96	i	1	-6	.	.	.
69: O=C(NCc1ccc2c(c1)OCO2)C1CC(c2ccc(Cl)cc2)=NO1 (stereo unspecified)
→ 108	i	0.85	-1	-1.7	17	100
70: Cc1ccc2[nH]c3c(c2c1)CCC3=O
→ 101	i	1.1	-10	0.0	.	.
71: COc1cc2c(cc1NC(=O)Cc1ccc(C)cc1)oc1ccccc12
→ 109	i	0.86	-4	-0.6	17	107
72: O=C(CNC(=S)NC(=O)c1ccco1)c1ccccc1
→ 95	i	1	6	-0.1	-54	127
73: CCC(C)(C)n1nnnc1C(c1cccnc1)N1CCN(c2cccc(C(F)(F)F)c2)CC1 (stereo unspecified)
→ 98	i	0.97	-6	-0.5	-24	167
74: COc1ccc2c(-c3cccnc3)cc(=O)[nH]c2c1
→ 97	i	0.69	-6	-0.9	16	94
75: O=C(c1ccc(S(=O)(=O)N2CCCCCC2)cc1)N(c1ccccn1)C1CCCCC1
→ 104	i	1	-1	.	.	.
76: COc1ccc(C2(C)NC(=O)N(CC(=O)Nc3ccc4c(c3)OCO4)C2=O)cc1OC (stereo unspecified)
→ 92	i	0.88	-8	-2.5	-6	239
77: COc1ccc(OC)c(C2C(C#N)=C(N)Oc3cc(C)[nH]c(=O)c32)c1 (stereo unspecified)
→ 100	.	.	-5	-0.5	25	94

Compound activity (PubChem)
